# Bioassay records deposited in PubChem BioAssay by ICCB-Longwood Screening Facility, Harvard Medical School.
# Sa growth inh: inhibitors of Staphylococcus aureus growth at 42 °C; S. aureus RN4220 growth, OD600, 20 h; hits give low values; AID 720641; relative growth, % (test concentration not listed); 170,000 compounds, 0.53% hits;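 active = growth at 42 °C up to 50% and 20 or more points under that at 30 °C, or under 10% at both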;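 also: 300 nL library stock went into each well; scaled to the means of positive and negative controls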
# HCMV UL50-53 inh: disrupts HCMV UL50-UL53 complex binding. HTRF UL50-UL53 interaction, normalized percent inhibition. inhibition, % (concentration not given with the values). 190,000 compounds, 0.15% hits. AID 1918969;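 active = both replicates at 50% or more, plus weaker picks with an unusually low signal ratio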;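 also: stock transfer was 100 nL into about 20 µL; 0% = negative control wells and 100% = wells with untagged competitor protein; inactives centre near -12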
# GIV Gai3 FP: inhibitors of GIV GBA-motif binding to rat Galpha-i3; P08753; 210,000 compounds, 0.42% hits; AID 1224905; percent of control (FP), % (no concentration beside the values); Galpha-i3/FITC-GIV peptide fluorescence polarization, 90 min; hits give low values; scaled: aluminum fluoride 0%, vehicle 100%;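 active = replicate mean at 85% of control or lower, very high polarization wells dropped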;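 also: wells of about 15 µL received 100 nL stock; the first replicate is given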
# Target sequence (P08753 whole entry, looked up): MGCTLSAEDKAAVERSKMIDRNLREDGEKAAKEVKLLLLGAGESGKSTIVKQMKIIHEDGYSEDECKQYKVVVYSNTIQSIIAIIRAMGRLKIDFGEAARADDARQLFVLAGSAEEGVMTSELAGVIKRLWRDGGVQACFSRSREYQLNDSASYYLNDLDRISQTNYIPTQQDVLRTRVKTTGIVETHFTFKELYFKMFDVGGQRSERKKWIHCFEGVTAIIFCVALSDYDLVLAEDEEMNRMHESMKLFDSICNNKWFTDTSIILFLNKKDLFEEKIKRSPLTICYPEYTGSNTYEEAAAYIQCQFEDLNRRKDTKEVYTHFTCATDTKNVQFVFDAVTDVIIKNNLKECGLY
# Sa growth inh second temp: also measured in Sa growth inh; calls as there; relative growth, %; measured here: growth at 30 °C;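 optical density after 20 h as mean of two plates; 100% = untreated growth and lower means inhibition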
# * hit, by the source's call; nt = no result given; & = joins results of further samples.
Molecule	Sa growth inh	Sa growth inh second temp	HCMV UL50-53 inh	GIV Gai3 FP
CC(NS(=O)(=O)c1ccc(F)cc1)C(c1cccs1)N1CCN(c2ccccc2)CC1 (stereo unspecified)	90	70	-4	98
CC1CCCC(n2c(=S)[nH]c3ccccc3c2=O)C1C (stereo unspecified)	89	69	nt	103
CNc1nc(SCc2ccccc2)nc(N2CCOCC2)n1	104	85	0	102
COc1ccc(Cl)cc1NC(=O)Nc1ccccc1Sc1cc(C)nc2ncnn12	nt	nt	-12	109
Cc1cc(Nc2ccc(C)c(C)c2)n2cnnc2n1	78	92	16	109
CCC(C)c1ccc(OCCCN2CCN(C)CC2)cc1 (stereo unspecified)	90	99	nt	101
O=C(OCc1ccc(-c2cc(C(F)(F)F)cc(C(F)(F)F)c2)o1)c1cccs1	113	97	13	103
CC1=C(C(=O)Nc2cccc(C)n2)C(c2cccc(Br)c2)C2=C(CC(C)(C)CC2=O)N1 (stereo unspecified)	nt	nt	-1	105
O=c1n(Cc2ccccc2)nc2n1-c1ccccc1SC2	88	77	-22	99
Cc1ccc(Cl)cc1NCc1cc(=O)n2[nH]c(-c3ccc(C(C)(C)C)cc3)nc2n1	nt	nt	-25	112
Cc1ccc2c(c1)c(=O)c1ccccc1n2CCCC(=O)Nc1ccc(Cl)cc1C	100	89	-24	106
O=c1cc(-c2ccccc2)n2c(SCc3ccc([N+](=O)[O-])cc3)nnc2[nH]1	109	93	nt	103
COc1ccc(CCNC(=O)c2cnc3sc(N4CCC(C)CC4)nn3c2=O)cc1OC	89	86	nt	99
CCc1ccccc1NS(=O)(=O)c1ccc(-c2coc(C)n2)cc1	87	97	nt	107
CC(C)c1ccc(NC(=O)Cn2cc(S(=O)(=O)Cc3ccccc3Cl)c3ccccc32)cc1	102	84	nt	101
O=C1CC(N2CCN(c3ccccc3)CC2)C=C1Nc1ccc(Cl)cc1 (stereo unspecified)	94	90	-7	103
CC(C)(C)OC(=O)N1CCC(c2c(C(=O)NC3CCN(Cc4ccccc4)CC3)cnn2-c2ccc(F)cc2F)CC1	109	82	nt	106
CCCCCCSc1nc(O)c(CC)c(=O)n1-c1ccccc1	115	97	-13	97
N#Cc1cccc(CSC(=N)N)c1	127	87	-2	104
Cc1ccc(CNc2ncnc3c2c(-c2ccccc2)cn3-c2ccccc2)cc1	111	97	nt	103
CC(=O)N1CCCSc2ccc(S(=O)(=O)N3CC(C)Oc4ccccc43)cc21 (stereo unspecified)	nt	nt	16	105
COc1cccc(NC(=O)C(C)N2CCc3ccccc32)c1 (stereo unspecified)	76	90	-18	nt
Cc1cccc(C)c1N1C(=O)CN(C(C)C)C1=S	104	96	-7	nt
CN(C(=O)CSc1nnc(Nc2ccccc2F)s1)C1CCCCC1	113	95	2	nt
CCOC(=O)c1c(NC(=O)c2cc3n(n2)C(C(F)(F)F)CC(c2ccco2)N3)sc2c1CCCCC2 (stereo unspecified)	nt	nt	-5	94
CC(C)C(C(=O)NCc1ccco1)c1ccc(Cl)cc1 (stereo unspecified)	101	93	-30	nt
Cn1c(=O)n(C)c2cc(S(=O)(=O)Nc3ccc(N4CCN(S(C)(=O)=O)CC4)cc3)ccc21	nt	nt	-16	99
Cc1cc2nc(-c3cc(NC(=O)c4sc5ccccc5c4Cl)ccc3O)oc2cc1C	nt	nt	7	96
COCCCNC(=O)CSc1nc(-c2ccc(OC)cc2)[nH]c1-c1ccc(OC)cc1	99	88	-8	100
COc1ccc(Cl)cc1NC(=O)CN(C)S(=O)(=O)c1ccc2c(c1)CCCN2C(C)=O	118	87	nt	109
Cc1ccccc1NC(=O)CCc1c(C)nc2c(c1C)c(=O)n(C)c(=O)n2C	94	88	-27	104
Cc1ccccc1N(C)S(=O)(=O)c1nnc(NC(=O)C(C)C)s1	91	88	-27	102
CCOc1cc(CNCCSc2nnnn2C)cc(Cl)c1OCc1ccc(Cl)cc1	69	26	2&-25	111&103
COc1ccc(O)c(C(=O)c2cnc(Nc3nc(C)c4ccccc4n3)nc2)c1	187	4	-4	nt
Cc1nc2nc(-c3cccnc3)nn2c(C)c1CC(=O)N1CCC(C)CC1	nt	nt	13	105
CCc1cccc(C(C)C)c1NC(=O)c1cccs1	103	92	-3	94
Clc1ccc(-n2ncc3c2ncn2nc(-c4ccccc4)nc32)cc1	97	85	nt	103
CCNC(=O)c1sc(N2CCC(C)CC2)nc1N	nt	nt	2	110
Cc1ccc(S(=O)(=O)N(Cc2nc3nc(C)cc(=O)n3[nH]2)c2ccccc2)cc1	nt	nt	0	113
O=C(NC12CC3CC(CC(C3)C1)C2)C1CCC1	99	78	-34	nt
CCC(=O)Oc1ccc(NC(=O)CSCc2ccccc2)cc1	115	98	-6	104
Cn1cc(S(=O)(=O)N2CCc3ccccc32)cc1C(=O)N1CCn2c1nc1ccccc12	nt	nt	-11	105
COc1ccc(C2=NC(C)(C)N(CC(=O)Nc3ccc(F)c(F)c3)C2=O)cc1	104	81	-26	98
Cc1cccc(NC(=O)CSc2nc3c(cc2C#N)CCCCC3)c1	nt	nt	-21	95
CCn1c(C)nnc1SCC(=O)Nc1cccc(Cl)c1	103	87	-4	97
CCc1ccc(S(=O)(=O)N(C(=O)Oc2ccccc2)c2ccc3oc(C)c(C(=O)OC)c3c2)cc1	99	96	4	103
Oc1ccc(-c2n[nH]c(=S)n2CC2CCCO2)cc1 (stereo unspecified)	80	90	1	99
Cc1cccc(N(C)S(=O)(=O)c2c(C)noc2C)c1	92	85	-5	103
CCn1c(=O)c(-c2noc(CCC(=O)Nc3ccc(F)c(Cl)c3)n2)nn(-c2ccccc2)c1=O	nt	nt	7	105
COc1ccc(CCNC(N)=S)cc1OC	102	103	19	97
Cc1cc(C)n(-c2ccc(N3CC(C)OC(C)C3)nn2)n1 (stereo unspecified)	98	94	0	102
NCc1ccc(-c2ccc(Cl)cc2)o1	115	100	-44	nt
CC(=O)N1C(O)CCN1c1ccccc1 (stereo unspecified)	109	55	1	100
Cc1ccc(NC(=O)CSc2nc3c(oc4ccccc43)c(=O)n2Cc2ccco2)cc1	109	88	-18	99
Cn1c(=NC(=O)C2COc3ccccc3O2)sc2ccccc21 (stereo unspecified)	110	91	-26	nt
CCCn1c(CCC(=O)Nc2ccc(OCC)cc2)nc2cccnc21	98	91	-47	102

# (more compounds)
Molecule	Sa growth inh	Sa growth inh second temp	HCMV UL50-53 inh	GIV Gai3 FP
CCCN(CCC)C(=O)Cn1c(=O)n(-c2ccc(C)c(C)c2)c(=O)c2c3c(sc21)CCCCC3	108	95	-7	108
CC1(C)C(=O)Nc2ccccc2N1C(=O)Cn1nc(C(=O)O)c2ccccc2c1=O	98	90	-7	nt
O=C1CC(C(=O)Nc2nncs2)C(c2ccccc2)O1 (stereo unspecified)	76	87	nt	114
Cc1cc(=O)[nH]c2nnc(SCc3cccc(F)c3)n12	94	91	nt	99
O=C(O)CC1=C(c2cccs2)N2CCN=C2S1	99	102	3	nt
O=C(NCC1CCCO1)c1ccc(S(=O)(=O)N2CCCCC2)cc1 (stereo unspecified)	121	95	-26	100
CCCCCCC1CCC/C1=N\NC(N)=O (stereo unspecified)	121	99	-11	103
Cc1ccc(NC(=O)CSc2nc(-c3cccs3)nc3cc(=O)[nH]n23)cc1C	64	56	nt	99
CCOC(=O)c1ccc(-c2c(C)oc3cc(OC)c(CC)cc3c2=O)o1	106	102	10	nt
O=C(O)c1ccc(Nc2ncnc3c2cnn3Cc2ccccc2)cc1	79	46	nt	96
CCN(CC)C(=O)c1csc(Nc2ccc(OC)cc2)n1	110	80	nt	100
Nc1nonc1-c1nc2ccccc2n1CC(=O)Nc1cccc(C(F)(F)F)c1	88	73	2	148
Cc1ccc(C)c(NC(=O)N2CCC(CN3CCOCC3)CC2)c1	86	89	nt	106
Cc1cccc(C)c1NC(=O)c1sc(-n2nc(C)c(Cc3ccc4c(c3)OCO4)c2C)nc1C	96	95	17	100
CCCCOC(=O)c1ccc(NC(=O)C2CC(=O)Nc3nc4ccccc4n32)cc1 (stereo unspecified)	nt	nt	-8	100
CC(C)c1ccc(/C=C(\C#N)c2nc(-c3ccc(O)cc3)cs2)cc1	93	85	-8	111

# Some entries already given with just Sa growth inh, HCMV UL50-53 inh and Sa growth inh second temp:
canonical_smiles	Sa growth inh	HCMV UL50-53 inh	Sa growth inh second temp
CCCCCCC1CCC/C1=N\NC(N)=O (stereo unspecified)	121	-11	99
Cc1ccc(NC(=O)CSc2nc(-c3cccs3)nc3cc(=O)[nH]n23)cc1C	64	nt	56
CCOC(=O)c1ccc(-c2c(C)oc3cc(OC)c(CC)cc3c2=O)o1	106	10	102
O=C(O)c1ccc(Nc2ncnc3c2cnn3Cc2ccccc2)cc1	79	nt	46
CCN(CC)C(=O)c1csc(Nc2ccc(OC)cc2)n1	110	nt	80

# (cont.)
Molecule	Sa growth inh	Sa growth inh second temp	HCMV UL50-53 inh	GIV Gai3 FP
O=C(Cn1cnc2ccc(Cl)cc2c1=O)N(c1ccccc1)C1CCS(=O)(=O)C1 (stereo unspecified)	85	96	-30	nt
Cc1cccc(Cn2cccc2CNS(=O)(=O)c2cccc3nsnc23)c1	nt	nt	-58	105
CN(C)S(=O)(=O)c1cccc(C(=O)OCC(=O)c2ccc[nH]2)c1	92	96	-32	nt
CC(Oc1ccccc1-c1ccccc1)c1n[nH]c(=S)n1-c1ccccc1 (stereo unspecified)	98	71	-23	100
Cc1ccc(NC(=O)NCCCn2c(-c3ccncc3)nc3cccnc32)c(C)c1	nt	nt	-6	108
CCCCN1C(=O)c2ccc(C(=O)OCc3csc(C)n3)cc2C1=O	74	89	-88	nt
CS(=O)(=O)CC(=O)Nc1ccc2nc3n(c(=O)c2c1)CCCCC3	96	101	6	111
CCOC(=O)C1CCN(c2cc3c(cc2NC(=O)NCC(C)C)n(C)c(=O)n3C)CC1	nt	nt	-20	102
CCc1ccc(NC(=O)c2sc3nc(C)c(Cl)c(C)c3c2NC(=O)c2ccccc2)cc1	104	90	-25	106
Cc1cc(Nc2ccccc2C)n2nc(Cc3ccc(Cl)cc3)nc2n1	82	69	-23	110
O=[N+]([O-])c1cc(N=Cc2nc(-c3ccccc3Br)oc2O)ccc1Cl	nt	nt	6	105
CN(CC(=O)NC1CCCc2ccccc21)c1nnc(N2CCCC2=O)s1 (stereo unspecified)	75	82	-22	100
CCC(C)Nc1nc(N(C)C)nc(-n2cnc(SC)n2)n1 (stereo unspecified)	nt	nt	-6	100
Cc1ccc(S(=O)(=O)NCc2nc(N)n(S(=O)(=O)c3ccc(C)c(C)c3)n2)cc1C	nt	nt	5	109
CCOC(=O)c1c(C)[nH]c(C)c1C(=O)CN1C(=O)NC(CC(C)C)C1=O (stereo unspecified)	86	97	2	nt
CN1CCN(C(=O)C(=O)Nc2c3c(nn2-c2ccc(Cl)cc2)CSC3)CC1	153	92	nt	102
CCN1CCN(c2ncc3c(n2)CCN(Cc2ccc(OC)c(OC)c2)C3)CC1	91	90	nt	106
COc1ccccc1CNC(=O)C1CCCN1c1nn2c(=O)cc(C)nc2s1 (stereo unspecified)	104	84	nt	97
CCCCC(=O)Nc1ccc(N2CCn3c(nc4cc(Cl)ccc43)C2)cc1	nt	nt	-20	99
Cc1ccc(C)n1-c1cccnc1	100	89	-13	nt
COCCCNC(=O)CSc1nc2cc(OC)c(OC)cc2c2nc(-c3ccccc3)nn12	110	88	-16	95
Cc1ccc(CNC(=O)CCc2c(C)nc3c4cccnc4nn3c2C)cc1	86	86	nt	105
COCc1nnc(NC(=O)/C=C/c2cc(OC)c(OC)c(OC)c2)s1	99	83	nt	94
CCC(=O)N1CCc2cc(S(=O)(=O)CCC(=O)NCc3cccs3)ccc21	105	86	nt	99
CCn1c(=O)c(=O)n(CC)c2cc(NS(=O)(=O)c3ccc(Cl)cc3)ccc21	nt	nt	-36	98
Cc1ccc(S(=O)(=O)N2CCC(N(C)CCC(C)C)CC2)cc1	117	90	nt	106
Cn1cccc1/C=C/C(=O)Oc1ccc2ccc(=O)oc2c1	95	89	-46	nt
Cc1ccc(-c2ccc(=O)[nH]n2)cc1S(=O)(=O)N1CCOCC1	111	88	-45	112
O=C(CSc1nccn1Cc1ccc(F)cc1)NCc1ccco1	122	86	nt	103
Cc1nn(Cc2ccc(F)cc2)c2sc(C(=O)Nc3ccc(N4CCOCC4)cc3N3CCOCC3)cc12	85	90	11	nt
CC(=O)Nc1ccc(CN2CCN(C/C=C/c3ccccc3)CC2)cc1	123	103	-8	105
CN(C(=O)c1cc(-c2cccs2)n(C2CCS(=O)(=O)C2)n1)C1CCS(=O)(=O)C1 (stereo unspecified)	nt	nt	-9	96
Fc1ccccc1N1CCN(c2c3c(nc4nncn24)CCC3)CC1	98	87	-33	102
COc1ccc(-c2cc(C(=O)NC3CCCC3)no2)cc1	87	88	2	95
